Source: PubChem BioAssay
Ab BasE inh: BasE siderophore enzyme inhibitors, primary screen, biochemical, Acinetobacter baumannii ATCC 17978, fluorescence polarization; purified BasE, fluorescence polarization binding displacement; hit rate 0.1% among 84,000; inhibition, % (test concentration not listed); AID 485350, 2010;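 active = both replicates above 25% with normal brightness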;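 also: 0% = negative plate control signal and 100% = positive plate control signal; stock transfer was 100 nL into about 30 µL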
KSHV LANA nucl: inhibitors of KSHV LANA-nucleosome binding, primary screen, biochemical, fluorescence polarization, FITC-LANA1-23, chicken nucleosomes | FITC-LANA1-23 / chicken nucleosome fluorescence polarization; active compounds read low | z-score (test concentration not listed) | hit rate 0.3% among 51,000 | AID 720717, 2013;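 active = both repeat wells score below -2 in polarization z-score versus plate sample wells, excluding overly bright wells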;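 also: 100 nL library stock added to about 30 µL; numbers are from one replicate; some results filed as inactive read as strong as hits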
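Assay system: FITC-LANA peptide and chicken nucleosomes; input: 240 nM purified chicken nucleosomes (480 nM peptide binding sites), final; also added: 50 nM FITC-LANA1-23 probe; medium: TEN-BT buffer, pH 7.5; doses: pin-transferred compound, 100 nL; times: 10–45 min, room temperature; technique: fluorescence polarization; replication: duplicates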
* hit, by the source's call; · = no result given. This is a subset (hit frequency here may not be typical).

SMILES | Ab BasE inh | KSHV LANA nucl
CCCSc1ccc(C(=O)Nc2ccc(Cl)cc2)cn1 | · | -0.59
O=C(NCC(c1ccco1)N1CCCCC1)c1ccc2c(c1)S(=O)(=O)c1ccccc1C2=O (configuration not stated) | -3.8 | ·
FC(F)(F)Oc1ccc(C2c3ccsc3CCN2Cc2ccccc2)cc1 (configuration not stated) | · | 0.05
Cc1ccc(C23CCC(=O)N2C(C(=O)NCCc2ccccn2)CS3)cc1 (configuration not stated) | -1.9 | ·
O=c1c2ccccc2nc2n1CCCCC2 | 0.2 | -1
COc1ccc(/C=c2/sc3nc4ccccc4n3c2=O)cc1OC | 1.7 | -0.27
O=C(NC1CCCCC1)N(Cc1cc2cc3c(cc2[nH]c1=O)OCCO3)C1CCCCC1 | 0.7 | 0.44
Cc1ccc2[nH]c(=O)c(CNc3ccc(N4CCCCC4)c(CO)c3)cc2c1 | 0.1 | 0.33
COC(=O)c1cc(OC)c(OC)cc1NC(C)=O | -0.7 | ·
c1ccc(-c2nc3c4ccccc4nc(NCCN4CCN(c5ccccc5)CC4)n3n2)cc1 | -2.4 | 0.16
C/C(=N\NC(N)=O)c1ccc(C)c(C)c1 | 2.9 | ·
CC(OC(=O)c1ccc2c(c1)S(=O)(=O)c1ccccc1C2=O)C(N)=O (configuration not stated) | -0.5 | ·

A section taken from the entries so far, for reference:
SMILES | Ab BasE inh | KSHV LANA nucl
O=C(NC1CCCCC1)N(Cc1cc2cc3c(cc2[nH]c1=O)OCCO3)C1CCCCC1 | 0.7 | 0.44
Cc1ccc2[nH]c(=O)c(CNc3ccc(N4CCCCC4)c(CO)c3)cc2c1 | 0.1 | 0.33

Next results follow:
SMILES | Ab BasE inh | KSHV LANA nucl
O=c1ccc2cc3c4c(c2o1)CCCN4CCC3 | 17 | -5.2*
CCc1ccccc1N(C)S(=O)(=O)c1ccc(-c2cc(C(F)(F)F)no2)s1 | 3.1 | ·
CCCCC[C@H](O)/C=C/C=C\C/C=C\C/C=C\CCCC(=O)O | 1.9 | 0.073
c1ccc(-c2cccs2)nc1 | 0.3 | 0.65
Cc1nn(C)c(Oc2cccc(C(F)(F)F)c2)c1C(=O)O | · | 0.88
S=C(NCCc1ccncc1)Nc1ccccc1 | 2.9 | -0.32
CCOc1ccc(S(=O)(=O)NC(C)C(=O)NC2CCCC2)cc1 (configuration not stated) | 15 | -0.51
N#Cc1ccc(COC(=O)CCN2C(=O)COc3ccccc32)cc1 | 1.7 | ·
O=C1c2ccccc2C(=O)N1CNc1ccc(I)cc1 | 0.5 | -0.24
CSC1=C(C#N)C(c2ccc(Cl)cc2)CC(=O)N1 (configuration not stated) | -0.5 | 1
Cc1ccc(-c2c[n+](=O)c3c(n2[O-])CCC3)cc1 | 3.9 | ·
c1ccc2cc(Nc3ncnc4[nH]ncc34)ccc2c1 | 2.1 | ·

In another format: entries from further up
structure	Ab BasE inh	KSHV LANA nucl
FC(F)(F)Oc1ccc(C2c3ccsc3CCN2Cc2ccccc2)cc1 (configuration not stated)	·	0.05
Cc1ccc(C23CCC(=O)N2C(C(=O)NCCc2ccccn2)CS3)cc1 (configuration not stated)	-1.9	·
O=c1c2ccccc2nc2n1CCCCC2	0.2	-1
COc1ccc(/C=c2/sc3nc4ccccc4n3c2=O)cc1OC	1.7	-0.27
O=C(NC1CCCCC1)N(Cc1cc2cc3c(cc2[nH]c1=O)OCCO3)C1CCCCC1	0.7	0.44
Cc1ccc2[nH]c(=O)c(CNc3ccc(N4CCCCC4)c(CO)c3)cc2c1	0.1	0.33
COC(=O)c1cc(OC)c(OC)cc1NC(C)=O	-0.7	·
c1ccc(-c2nc3c4ccccc4nc(NCCN4CCN(c5ccccc5)CC4)n3n2)cc1	-2.4	0.16
C/C(=N\NC(N)=O)c1ccc(C)c(C)c1	2.9	·
CC(OC(=O)c1ccc2c(c1)S(=O)(=O)c1ccccc1C2=O)C(N)=O (configuration not stated)	-0.5	·
O=c1ccc2cc3c4c(c2o1)CCCN4CCC3	17	-5.2*
CCc1ccccc1N(C)S(=O)(=O)c1ccc(-c2cc(C(F)(F)F)no2)s1	3.1	·
CCCCC[C@H](O)/C=C/C=C\C/C=C\C/C=C\CCCC(=O)O	1.9	0.073
c1ccc(-c2cccs2)nc1	0.3	0.65
Cc1nn(C)c(Oc2cccc(C(F)(F)F)c2)c1C(=O)O	·	0.88
S=C(NCCc1ccncc1)Nc1ccccc1	2.9	-0.32
CCOc1ccc(S(=O)(=O)NC(C)C(=O)NC2CCCC2)cc1 (configuration not stated)	15	-0.51
N#Cc1ccc(COC(=O)CCN2C(=O)COc3ccccc32)cc1	1.7	·
O=C1c2ccccc2C(=O)N1CNc1ccc(I)cc1	0.5	-0.24

Further structures follow:
SMILES | Ab BasE inh | KSHV LANA nucl
CCC(=O)C1(Sc2nc3ccccc3[nH]2)CC(C)(C)OC1=O (configuration not stated) | -2.3 | -0.0055
Cc1noc2ncnc(N3CCCC(C(=O)Nc4nccs4)C3)c12 (configuration not stated) | -2.8 | ·
CCCn1c(SCC(=O)N(C2=CCCCC2)C2CC2)n[nH]c1=O | -2.1 | ·
COCCCN1Cc2cccc(C(=O)O)c2C1=O | -4.7 | 0.97
CSc1nc2ccccc2n1CC(=O)N1CCc2ccccc21 | -0.9 | ·
O=C(O)CCCNc1ncnc2ccccc12 | 2.3 | 1.7
Oc1ccccc1CNc1ccc(F)c(Cl)c1 | -1.2 | ·
Cc1nn(-c2ccccc2)c(Cl)c1C1C(C#N)=C(N)OC2=C1C(=O)CCC2 (configuration not stated) | -5.5 | 0.073
NC(=O)CCC1COc2ccccc2O1 (configuration not stated) | -2.5 | 0.45
O=C(CSc1ncnc2[nH]ncc12)c1ccccc1 | 1.9 | ·
COC(=O)Cn1cnc2c1c(=O)n(C)c(=O)n2C | 0.5 | -0.81
Cc1c(/C=N/NC(=O)c2cc(Br)ccc2O)c(=O)n(C)c(=O)n1C | 3.4 | ·
CCc1nnc(NC2=NS(=O)(=O)C(c3cccc(Br)c3)=C2C)s1 | 4.6 | 0.66
COC(=O)C1(CCSC)NC(c2ccc(N(C)C)cc2)C2C(=O)N(C)C(=O)C21 (configuration not stated) | 1.5 | -0.095
CCCCc1oc2ccccc2c1C(=O)c1ccc(O)cc1 | 4.2 | ·
CCOc1ccc(-n2c(CSc3nc4ccccc4o3)nc3ccccc3c2=O)cc1 | 1.2 | ·
CC(C(=O)NC1CCCCCC1)n1c2ccccc2c2cnn(C)c(=O)c21 (configuration not stated) | -0.3 | -1.4
N#Cc1ccsc1NC(=O)COC(=O)c1cc(-c2ccccc2)nn1-c1ccccc1 | -14 | ·
CC(=O)O/N=C1\Sc2ccccc2C1=O | 7.6 | -0.92
C/C(CC1(O)/C(=N/O)CCc2nonc21)=N\O (configuration not stated) | -0.4 | 0.026
Clc1cccc(Cl)c1Cn1nnc(N2CCCC2)n1 | 1.3 | ·
CC(C)(C)c1cc(C(=O)NCCCn2ccnc2)cc(C(C)(C)C)c1 | -0.5 | ·
Cc1noc2ncn(CC(=O)NC(C)C)c(=O)c12 | -0.9 | ·
O=S1(=O)CCC2CC=CCC21 (configuration not stated) | -0.3 | 0.03
CCc1c(O)nc(SC(C)C(=O)Nc2ccc(S(N)(=O)=O)cc2)n(-c2ccccc2)c1=O (configuration not stated) | 1.9 | 0.81
CCOC(=O)c1c(C)oc2c1c(CN1CCN(c3ccccc3)CC1)c(O)c1ccccc12 | -0.2 | ·
O=C(CSCc1ccccc1Cl)NC1CC1 | 3.2 | -0.82
CCN(CC)c1ccc(NC(=O)Nc2ccc(Cl)cc2)cc1 | 0.0 | -1.2
Cc1noc(C)c1C(=O)N(C)C1CCCc2ccccc21 (configuration not stated) | -0.5 | ·
CCOC(=O)CSc1nnc(Nc2ccccc2C)s1 | -2.9 | ·
O=C(CSc1nnc(-c2cccnc2)o1)N(C1CCCCC1)C1CCCCC1 | -0.1 | 0.96
CCOC(=O)N1CCC(N2Cc3cccc(C(=O)Nc4cc(F)ccc4F)c3C2=O)CC1 | -0.4 | -0.56
CC(C)(C)OC(=O)N1CCN(C(=O)c2ccccc2C(=O)O)CC1 | 2.0 | ·
CCOC(=O)c1sc(N)c(C#N)c1COC(=O)CC1Sc2ccccc2NC1=O (configuration not stated) | -39 | ·
Cc1ccc(C=Nc2ccccc2C(N)=O)o1 | -1.3 | -0.24
O=C(Nc1ccccc1Cl)N1CCN(C/C=C/c2ccccc2)CC1 | -0.2 | 0.083
Cc1nc2cc(-c3ccccc3)nn2c(C)c1CCC(=O)NCc1ccco1 | -0.6 | -0.13
Nn1c(COc2ccccc2)n[nH]c1=S | 1.3 | ·
COc1ccc(C(=O)CSc2nnc(-c3ccco3)c(-c3ccco3)n2)cc1 | 0.1 | ·
O=C1NN=C(c2ccccc2)Cn2c1cc1ccccc12 | -0.9 | 0.24
CCCNC(=O)c1c(C)oc2ncnc(N3CCCCC3)c12 | -1.0 | ·
NS(=O)(=O)c1ccc(S(=O)(=O)N(Cc2ccccc2F)CC2CCCO2)cc1 (configuration not stated) | 2.1 | -0.63
CCOC(=O)c1oc2ccccc2c1NC(=O)CSc1nnc(SCC)s1 | 1.8 | ·
O=C(CO/N=C/c1ccccc1)N=Nc1c(O)n(CN2CCCC2)c2ccccc12 | 1.5 | 1.5
O=C(NC1CCCCC1)C1c2ccccc2C(=O)N1Cc1ccco1 (configuration not stated) | · | 0.48
COC(=O)c1cc(-c2cc(OC)c(OC)c(OC)c2)nn1-c1ccccn1 | 1.3 | ·
CCOC(=O)CSc1nnc(-c2ccc3ncccc3c2)n1C | 4.0 | ·
Cc1cc(C)c(C#N)c(SC2CCc3ccccc3C2=O)n1 (configuration not stated) | 1.4 | -0.9
COc1cccc(OC)c1C(=O)NC(=O)Nc1c(C)cccc1C | 0.1 | 0.13
CN(C(=S)NCc1ccc2c(c1)OCO2)C1CCS(=O)(=O)C1 (configuration not stated) | 1.1 | ·
Nc1n[nH]c(CC2CCCCC2)n1 | 1.6 | 0.35
CN(CCC#N)C(=O)C1CC(=O)N(Cc2ccco2)C1 (configuration not stated) | 1.1 | ·
N#Cc1ccc(/C=N/NC=O)cc1 | -1.9 | ·
COc1ccc(NC(=O)C2CC(=O)N/C(=N/N=C/c3ccccc3)S2)cc1 (configuration not stated) | 3.0 | -0.47
O=C(NCC(F)(F)F)C1COc2ccccc2O1 (configuration not stated) | 4.4 | ·
CC(C)CCNc1ncnc2c1nnn2Cc1ccccc1 | 3.0 | -0.41
CCCCN1C(=S)NS(=O)(=O)c2ccccc21 | 2.1 | 0.87
CN(C)S(=O)(=O)c1cccc(C(=O)OCCN2C(=O)c3ccccc3C2=O)c1 | 2.4 | ·
CC(C)N(CC(N)=O)C(=O)COc1ccccc1Cc1ccccc1 | 1.2 | ·
Cc1ccc2cc3cc(C(=O)NCc4ccc(F)cc4)oc3nc2c1 | -2.5 | 0.81
Later entries
SMILES | Ab BasE inh | KSHV LANA nucl
Cc1cccc2cc(C#N)c(SCC#N)nc12 | -0.3 | 1.1
O=C(CCNC(=O)c1ccco1)NC12CC3CC(CC(C3)C1)C2 | 0.5 | ·
CCS(=O)(=O)N(C)c1ccc(C(N)=O)cc1 | -5.5 | 1.5
NNC(=O)Cn1nc2n(c1=O)-c1ccccc1SC2 | 3.4 | -0.59
CSc1nc(S(=O)(=O)c2ccc(C)cc2)c(N2CCOCC2)s1 | 0.9 | -0.66
Cc1nc2c3ccccc3ncn2n1 | -0.4 | ·
COc1cccc(-c2nc3c(c(SC)n2)Cc2c(CO)cnc(C)c2O3)c1 | 0.4 | 0.016
O=C(Nc1ccccc1)C(F)(F)F | 0.4 | ·
CC(C)C(NC(=O)Cc1n[nH]c(=O)c2ccccc12)c1ccc2c(c1)OCCCO2 (configuration not stated) | -4.2 | ·
CCNc1nc2cc(C)nn2c2ccccc12 | 2.7 | ·
O=C1CSC(c2cn(-c3ccccc3)nc2-c2ccccc2)N1CCCN1CCOCC1 (configuration not stated) | -0.8 | ·
CCCCOc1ccc(C(=O)NO)cc1OC | -0.5 | ·
O=C(CSc1nc(O)cc(=O)[nH]1)Nc1ccccc1 | -1.1 | 0.15
O=C1CCN(C(C(=O)Nc2ccc(F)cc2)c2ccccc2)CC1 (configuration not stated) | -3.4 | ·
Cc1noc(C)c1COC(=O)C(c1ccccc1)c1ccccc1 | 1.5 | ·
CN1C(=O)C(O)(c2sc(N)nc2-c2ccccc2)c2ccccc21 (configuration not stated) | -2.5 | ·
CC(=O)N1CCc2cc(C(=O)CN3CCOCC3)ccc21 | -1.1 | -0.084
O=C(O)CCN1C(=O)COc2ccc(Cl)cc21 | 0.7 | -0.32
COc1ccccc1NC(=O)c1cc2ccccc2oc1=Nc1ccccc1F | 2.8 | ·
COc1cc(C#N)ccc1OCC(=O)NCC(C)C | -0.3 | ·
CC1CCCCC1NC(=O)NC(=O)CSc1nc2c(cnn2-c2ccccc2)c(=O)[nH]1 (configuration not stated) | -0.7 | ·
Cc1cc(C)n(C(=O)c2ccncc2)n1 | 1.6 | ·
CCOC(=O)c1cc(-c2ccc(N(CC)CC)cc2)no1 | 5.2 | -4.8*
CCOc1ccccc1OC(=O)NN | 1.4 | ·
CCc1ccc(NS(=O)(=O)c2ccc3c(c2)C(C)(C)C(=O)N3C)cc1 | -0.8 | 1.6
COc1ccccc1C(=O)N/C(N)=N/c1nc2ccccc2o1 | -19 | ·
Nn1c(SCc2cc(=O)oc3cc4c(cc23)CCC4)nnc1-c1cccnc1 | -9.2 | ·
O=C(CN1C(=O)/C(=C/c2ccccc2F)Oc2ccccc21)N1CCOCC1 | 3.6 | -0.62
Cc1onc(-c2ccccc2)c1C(=O)Oc1cccnc1 | 0.7 | ·
Cc1ccc(SCC(=O)NC2CC3CCC(C2)N3C)cc1 (configuration not stated) | · | 1
Cc1cc(C=C2C(=O)OC(C)(C)OC2=O)c(C)n1-c1ccc(I)cc1 | 17 | ·
